# Bioassay records (PubChem BioAssay)
# FGF22 binding: FGF22 (human) thermal shift binding; Q9HCT0; recombinant FGF22 thermal shift, SYPRO orange fluorescence; percent of sucrose octasulfate shift, DMSO zero; calls only at 9.99 µM; hit rate 1.5% among 340,000; AID 651658;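 active = melting point raised past a set limit in the mean and every replicate; three in four hits are not shown here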
# Target sequence (Q9HCT0 whole entry, looked up): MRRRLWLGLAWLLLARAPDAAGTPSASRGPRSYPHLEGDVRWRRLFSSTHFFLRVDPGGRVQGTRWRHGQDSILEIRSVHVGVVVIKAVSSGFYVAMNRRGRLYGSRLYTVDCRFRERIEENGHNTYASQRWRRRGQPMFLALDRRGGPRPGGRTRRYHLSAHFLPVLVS
# Calls only; i = inactive; + = active, no number.
Structure	FGF22 binding
COc1ccc(CN(C)C[C@H]2Oc3c(NS(C)(=O)=O)cccc3C(=O)N([C@@H](C)CO)C[C@H]2C)cc1	+
CNC[C@@H]1OCCCC[C@H](C)Oc2ccc(NS(=O)(=O)c3ccccc3)cc2C(=O)N([C@@H](C)CO)C[C@@H]1C	i
CC(C)(C)[S@](=O)N1Cc2cc(C(=O)NCCc3ccncc3)nc(-c3cccc(-c4ccccc4)c3)c2[C@@H]1CCO	i
C[C@@H]1CCCCO[C@@H](CN(C)C(=O)Nc2ccc(F)cc2)[C@@H](C)CN([C@H](C)CO)C(=O)c2cc(NC(=O)c3ccncc3)ccc2O1	i
C[C@H]1CN([C@@H](C)CO)C(=O)c2cc(/C=C/c3ccccc3)cnc2O[C@H]1CN(C)C(=O)c1ccc(F)cc1	i
COc1ccc(NC(=O)N(C)C[C@H]2Oc3ncc(C#CC(C)C)cc3C(=O)N([C@@H](C)CO)C[C@@H]2C)cc1	i
O=C(C[C@H]1CC[C@H]2[C@@H](COC[C@@H](O)CN2C(=O)c2ccc(F)cc2)O1)NCCCN1CCOCC1	i
CCCNC(=O)Nc1ccc2c(c1)OC[C@H](C)N(C(=O)C1CCCCC1)C[C@H](C)[C@@H](OC)CN(C)C2=O	i
COc1ccc(CN(C)C[C@@H]2Oc3c(NC(=O)Nc4c(C)noc4C)cccc3C(=O)N([C@H](C)CO)C[C@H]2C)cc1	i
O=C(C[C@@H]1CC[C@@H]2[C@H](COC[C@H](O)CN2Cc2cc(F)cc(F)c2)O1)NCc1cccc(F)c1	i

# The final 2 entries of the part before open the next one:
Structure	FGF22 binding
COc1ccc(CN(C)C[C@@H]2Oc3c(NC(=O)Nc4c(C)noc4C)cccc3C(=O)N([C@H](C)CO)C[C@H]2C)cc1	i
O=C(C[C@@H]1CC[C@@H]2[C@H](COC[C@H](O)CN2Cc2cc(F)cc(F)c2)O1)NCc1cccc(F)c1	i
C[C@@H]1CCCCO[C@@H](CN(C)C(=O)NC2CCCCC2)[C@H](C)CN([C@@H](C)CO)C(=O)c2cc(NC(=O)Cc3ccccc3)ccc2O1	i
Cn1cnc(S(=O)(=O)N[C@@H]2C=C[C@H](CC(=O)N3CCN(c4ccccc4)CC3)O[C@H]2CO)c1	i
Cc1noc(C)c1NC(=O)N(C)C[C@H]1Oc2ccc(N(C)C)cc2C(=O)N([C@H](C)CO)C[C@@H]1C	i
CCCC#Cc1ccc([C@@H]2[C@H]3CN(C(=O)c4ccc5c(c4)OCO5)CCCCN3[C@H]2CO)cc1	i
O=C(N[C@H](Cc1ccccc1)C(=O)N1CCN(c2ccc(Cl)cn2)CC1)[C@H]1O[C@@H](n2ccc(=O)[nH]c2=O)[C@H](O)[C@@H]1O	i
COc1ccc(S(=O)(=O)Nc2ccc3c(c2)CC(=O)N([C@H](C)CO)C[C@H](C)[C@H](CN(C)Cc2ccc(C(F)(F)F)cc2)O3)cc1	i
Cc1ccc(-c2ccc3c(c2)O[C@H](CN(C)C(=O)Nc2ccc(F)cc2)[C@@H](C)CN([C@H](C)CO)S3(=O)=O)cc1	i
CCCCCCCCN1C(=O)[C@@H](CC(=O)NCCC(C)C)C[C@@]2(C(=O)OC)C1=C[C@H](C(C)(C)C)O[C@@H]2C	i
COc1ccc2c3c([nH]c2c1)[C@@H](CO)N(Cc1cccc(F)c1)CC31CCN(Cc2ccccn2)CC1	i
CCS(=O)(=O)Nc1ccc2c(c1)C(=O)N(C)[C@@H]1CC[C@H](CC(=O)OC)O[C@H]1CO2	i
CN1CCN(C(=O)C[C@H]2CC[C@@H]3[C@H](COc4ccc(NC(=O)c5cscn5)cc4C(=O)N3C)O2)CC1	i
CCC(=O)N1CCCCN2[C@H](CO)[C@H](c3ccc(/C=C/c4ccccc4)cc3)[C@H]2C1	i
COc1ccc(NC(=O)Nc2ccc3c(c2)CC(=O)N([C@@H](C)CO)C[C@H](C)[C@@H](CN(C)Cc2ccc(Cl)c(Cl)c2)O3)cc1	i
C[C@H]1CN([C@@H](C)CO)C(=O)c2cc(NS(=O)(=O)c3ccc(F)cc3)ccc2O[C@H]1CN(C)C(=O)NC1CCCCC1	i
C[C@@H]1CN([C@H](C)CO)C(=O)c2cccc(NC(=O)C3CC3)c2O[C@H]1CN(C)CC1CCCCC1	i
CC(C)NC(=O)N(C)C[C@H]1OCCCC[C@H](C)Oc2ccc(NC(=O)CCCN(C)C)cc2C(=O)N([C@@H](C)CO)C[C@H]1C	i
COc1ccc(NC(=O)Nc2ccc3c(c2)CC(=O)N([C@H](C)CO)C[C@H](C)[C@@H](CN(C)Cc2ccccc2)O3)cc1	i
C[C@H]1CCCCO[C@H](CN(C)C(=O)Nc2ccc(C(F)(F)F)cc2)[C@@H](C)CN([C@@H](C)CO)C(=O)c2cc(NC(=O)Nc3cccc4ccccc34)ccc2O1	i
Cc1ccc(S(=O)(=O)Nc2ccc3c(c2)C(=O)N([C@@H](C)CO)C[C@@H](C)[C@H](CN(C)C(=O)Nc2ccc(F)cc2)OCCCC[C@@H](C)O3)cc1	i
COc1ccc(NC(=O)Nc2ccc3c(c2)CC(=O)N([C@@H](C)CO)C[C@@H](C)[C@H](CN(C)C(=O)Nc2ccccc2)O3)cc1	i
COc1cccc(NC(=O)N2CC(=O)N3[C@H](CO)[C@H](c4ccc(C#CCC5CCCC5)cc4)[C@H]3C2)c1	i
Cc1noc(C)c1NC(=O)Nc1ccc2c(c1)CC(=O)N([C@@H](C)CO)C[C@H](C)[C@@H](CN(C)C(=O)Nc1cccc3ccccc13)O2	i
COCC(=O)N1[C@H](CO)[C@H](c2ccc(-c3ccccc3OC)cc2)C12CN(C(C)=O)C2	i
C[C@@H]1CN([C@@H](C)CO)C(=O)c2cc(NC(=O)Nc3ccc(C(F)(F)F)cc3)ccc2O[C@@H](C)CCCCO[C@H]1CN(C)Cc1ccc(C(F)(F)F)cc1	i
Cc1cccc(S(=O)(=O)N2C[C@@H](O)COC[C@@H]3O[C@@H](CC(=O)Nc4ccc(-c5ccccc5)cc4)CC[C@H]32)c1	i
COc1ccc2c3c([nH]c2c1)[C@H](CO)N(C(C)=O)CC31CCN(C(=O)Nc2ccccc2F)CC1	i
C[C@@H]1CCCCO[C@@H](CN(C)C(=O)C2CCCCC2)[C@@H](C)CN([C@H](C)CO)C(=O)c2cc(NC(=O)Nc3ccc(C(F)(F)F)cc3)ccc2O1	i
Cc1ccc(S(=O)(=O)N(C)C[C@@H]2Oc3ncc(C#CC4(O)CCCC4)cc3C(=O)N([C@@H](C)CO)C[C@H]2C)cc1	i
Cc1ccc(S(=O)(=O)Nc2cccc3c2O[C@@H](CN(C)Cc2ccc(C(=O)Nc4ccccc4N)cc2)[C@H](C)CN([C@H](C)CO)C3=O)cc1	i
C[C@@H]1CN([C@@H](C)CO)C(=O)c2cc(NC(=O)c3ccncc3)ccc2O[C@@H]1CN(C)C(=O)NC1CCCCC1	i

# Reformatted field by field: 2 of the compounds above
> C[C@@H]1CN([C@@H](C)CO)C(=O)c2cc(NC(=O)c3ccncc3)ccc2O[C@@H]1CN(C)C(=O)NC1CCCCC1
  FGF22 binding: i
> COc1cccc(NC(=O)N2CC(=O)N3[C@H](CO)[C@H](c4ccc(C#CCC5CCCC5)cc4)[C@H]3C2)c1
  FGF22 binding: i

# Next part.
Structure	FGF22 binding
C/C=C/c1cnc2c(c1)C(=O)N([C@H](C)CO)C[C@H](C)[C@H](CN(C)C(=O)c1ccc3c(c1)OCO3)O2	i
O=C(C[C@H]1CC[C@@H](NC(=O)c2cccc(F)c2)[C@H](CO)O1)NCCN1CCCC1	i
CNC[C@@H]1Oc2cc(-c3ccccc3OC)ccc2S(=O)(=O)N([C@@H](C)CO)C[C@H]1C	i
O=C(C[C@H]1CC[C@@H]2[C@H](COC[C@H](O)CN2Cc2cccc(C(F)(F)F)c2)O1)NCc1ccc(Cl)cc1	i
C[C@@H]1CN([C@H](C)CO)C(=O)c2cc(NC(=O)C3CCCCC3)ccc2O[C@@H](C)CCCCO[C@H]1CN(C)C(=O)C1CCCCC1	i
COc1ccc(NC(=O)N2CCCCN3[C@H](C2)[C@H](c2ccc(C4=CCCC4)cc2)[C@@H]3CO)cc1	i
C[C@@H]1CN([C@@H](C)CO)C(=O)c2cc(NC(=O)C3CCCCC3)ccc2O[C@H]1CN(C)S(C)(=O)=O	i
C[C@@H]1CN([C@@H](C)CO)C(=O)c2cc(NS(=O)(=O)c3cccs3)ccc2O[C@@H](C)CCCCO[C@H]1CN(C)Cc1ccncc1	i
CC(C)(O)C#Cc1ccc([C@@H]2[C@H]3CN(C(=O)c4cccnc4)CCCCN3[C@H]2CO)cc1	i
C[C@H](CO)N1C[C@H](C)[C@H](CN(C)Cc2ccccn2)Oc2ncc(C#CC(C)(C)O)cc2C1=O	i
C[C@@H]1CN([C@H](C)CO)C(=O)c2cc(C3=CCCC3)cnc2O[C@@H]1CN(C)C(=O)CN1CCOCC1	i
COc1ccc(S(=O)(=O)N(C)C[C@@H]2Oc3c(NC(=O)Nc4ccc5c(c4)OCO5)cccc3C(=O)N([C@H](C)CO)C[C@@H]2C)cc1	i
O=C(C[C@H]1CC[C@@H]2[C@H](COC[C@H](O)CN2C(=O)c2ccccc2F)O1)NCc1ccccc1	i
CN(C)CC(=O)N1[C@@H]2c3ccc(-c4ccc(F)cc4)c(=O)n3C[C@@H]2[C@@H](CO)[C@@H]1C(=O)NC1CCC1	i
C[C@@H]1CN([C@@H](C)CO)C(=O)c2cc(NC(=O)Nc3ccc4c(c3)OCO4)ccc2O[C@@H](C)CCCCO[C@@H]1CN(C)Cc1ccccc1	i
C/C=C/c1cnc2c(c1)C(=O)N([C@H](C)CO)C[C@H](C)[C@@H](CN(C)S(=O)(=O)c1ccccc1F)O2	i
CO[C@H]1CN(C)C(=O)c2cccc(C#N)c2OC[C@@H]2O[C@@H](CC[C@H]2OC)CCN(C)C(=O)[C@@H]1C	i
Cc1ccc(S(=O)(=O)N2CC[C@@H]3[C@H](CO)Nc4ccc(C#Cc5cccc(F)c5)cc4[C@@H]32)cc1	i
C[C@@H]1CN([C@@H](C)CO)C(=O)Cc2cc(NC(=O)CCC(F)(F)F)ccc2O[C@H]1CN(C)C(=O)Nc1ccccc1	i
C[C@H]1CN([C@@H](C)CO)C(=O)c2cc(NC(=O)C3CC3)ccc2O[C@H]1CN(C)S(=O)(=O)c1ccccc1	i
C[C@@H]1CN([C@@H](C)CO)C(=O)c2ccccc2-c2ccccc2CO[C@H]1CN(C)C(=O)Nc1ccc2c(c1)OCO2	i
COc1ccc(CN(C)C[C@@H]2Oc3c(NC(=O)NC(C)C)cccc3C(=O)N([C@H](C)CO)C[C@@H]2C)cc1	i
O=C(Nc1ccc2c(c1)OCO2)N[C@@H]1CC[C@H](CCNC(=O)C2CC2)O[C@H]1CO	i
COc1ccccc1NC(=O)N1C[C@@H]2N[C@H](C1)C2c1ccc(-c2ccc(C(=O)N(C)C)cc2)cc1 (stereo partly specified)	i
COc1cccc(NC(=O)N[C@H]2C=C[C@@H](CC(=O)N3CCOCC3)O[C@@H]2CO)c1	i
CCCNC(=O)C[C@@H]1C[C@H]2c3cc(NC(=O)Nc4ccccc4)ccc3O[C@H]2[C@@H](CO)O1	i
C[C@@H]1CN([C@H](C)CO)C(=O)c2cc(C#Cc3cccc(F)c3)cnc2O[C@@H]1CN(C)C(=O)C1CCCCC1	i
C[C@@H]1CN([C@@H](C)CO)S(=O)(=O)c2ccc(-c3ccccc3)cc2O[C@H]1CN(C)S(=O)(=O)c1ccccc1F	i
N#C[C@H]1[C@@H](c2ccc(C#CC3(O)CCCC3)cc2)[C@@H](CO)N1C(=O)C1CCCC1	i
C[C@H](CO)N1C[C@H](C)[C@H](CN(C)Cc2ccc(F)cc2)OCc2ccccc2-c2ccccc2C1=O	i

# Quoted at random: two entries already listed.
Structure	FGF22 binding
O=C(Nc1ccc2c(c1)OCO2)N[C@@H]1CC[C@H](CCNC(=O)C2CC2)O[C@H]1CO	i
N#C[C@H]1[C@@H](c2ccc(C#CC3(O)CCCC3)cc2)[C@@H](CO)N1C(=O)C1CCCC1	i

# Continuation:
Structure	FGF22 binding
CN(C)CCCNC(=O)[C@@H]1[C@@H](CO)[C@@H]2Cn3c(ccc(-c4cccnc4)c3=O)[C@H]1N2C(=O)CC1CC1	i
C[C@@H]1CN([C@H](C)CO)C(=O)c2cccc(NS(=O)(=O)c3cn(C)cn3)c2O[C@H]1CN(C)Cc1ccccc1	i
C[C@H](CO)N1C[C@H](C)[C@H](CN(C)C(=O)NC2CCCCC2)Oc2ccc(NC(=O)CCN3CCOCC3)cc2CC1=O	i
CO[C@H]1CN(C)C(=O)c2cc(NC(=O)Nc3c(C)noc3C)ccc2OC[C@@H](C)NC[C@H]1C	i
C[C@@H]1CN([C@H](C)CO)C(=O)Cc2cc(NC(=O)CCC(F)(F)F)ccc2O[C@@H]1CN(C)Cc1ccc(-c2ccccc2)cc1	i
COCC#Cc1ccc2c(c1)O[C@@H](CN(C)Cc1ccccn1)[C@H](C)CN([C@@H](C)CO)S2(=O)=O	i
O=C(C[C@H]1CC[C@@H]2[C@H](COC[C@H](O)CN2C(=O)Nc2cc(Cl)cc(Cl)c2)O1)NCC1CCCCC1	i
C[C@@H]1CN([C@@H](C)CO)C(=O)Cc2cc(NC(=O)Cn3cnnn3)ccc2O[C@@H]1CN(C)C(=O)Nc1ccc(C(F)(F)F)cc1	i
C[C@H]1CN([C@@H](C)CO)C(=O)Cc2cc(NS(=O)(=O)c3ccccc3)ccc2O[C@@H]1CN(C)Cc1ccc(C(=O)Nc2ccccc2N)cc1	i
C[C@H]1CN([C@@H](C)CO)C(=O)c2cccc(NS(=O)(=O)c3ccc(Cl)cc3)c2O[C@H]1CN(C)Cc1ccc2c(c1)OCO2	i

# Not all compounds are listed; count on the stated rates, not on these rows.
